LANA-H2A inh: blocks KSHV LANA binding to histone H2A/H2B. inhibition, % (no concentration beside the values). 0.6% of 320,000 active. AID 2629. Q9QR71. cell-free LANA-H2A/H2B peptide, fluorescence polarization; in the data active = inhibition mostly above about 10%, no sharp cut-off; inactive = mostly below about 6.7%;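 note: stock transfer was 7.5 nL into about 10 µL; 0% = median of vehicle wells and 100% = median of positive control wells; one replicate is shown; the record names a cut of 25% in any replicate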
Target sequence (Q9QR71 whole entry, looked up): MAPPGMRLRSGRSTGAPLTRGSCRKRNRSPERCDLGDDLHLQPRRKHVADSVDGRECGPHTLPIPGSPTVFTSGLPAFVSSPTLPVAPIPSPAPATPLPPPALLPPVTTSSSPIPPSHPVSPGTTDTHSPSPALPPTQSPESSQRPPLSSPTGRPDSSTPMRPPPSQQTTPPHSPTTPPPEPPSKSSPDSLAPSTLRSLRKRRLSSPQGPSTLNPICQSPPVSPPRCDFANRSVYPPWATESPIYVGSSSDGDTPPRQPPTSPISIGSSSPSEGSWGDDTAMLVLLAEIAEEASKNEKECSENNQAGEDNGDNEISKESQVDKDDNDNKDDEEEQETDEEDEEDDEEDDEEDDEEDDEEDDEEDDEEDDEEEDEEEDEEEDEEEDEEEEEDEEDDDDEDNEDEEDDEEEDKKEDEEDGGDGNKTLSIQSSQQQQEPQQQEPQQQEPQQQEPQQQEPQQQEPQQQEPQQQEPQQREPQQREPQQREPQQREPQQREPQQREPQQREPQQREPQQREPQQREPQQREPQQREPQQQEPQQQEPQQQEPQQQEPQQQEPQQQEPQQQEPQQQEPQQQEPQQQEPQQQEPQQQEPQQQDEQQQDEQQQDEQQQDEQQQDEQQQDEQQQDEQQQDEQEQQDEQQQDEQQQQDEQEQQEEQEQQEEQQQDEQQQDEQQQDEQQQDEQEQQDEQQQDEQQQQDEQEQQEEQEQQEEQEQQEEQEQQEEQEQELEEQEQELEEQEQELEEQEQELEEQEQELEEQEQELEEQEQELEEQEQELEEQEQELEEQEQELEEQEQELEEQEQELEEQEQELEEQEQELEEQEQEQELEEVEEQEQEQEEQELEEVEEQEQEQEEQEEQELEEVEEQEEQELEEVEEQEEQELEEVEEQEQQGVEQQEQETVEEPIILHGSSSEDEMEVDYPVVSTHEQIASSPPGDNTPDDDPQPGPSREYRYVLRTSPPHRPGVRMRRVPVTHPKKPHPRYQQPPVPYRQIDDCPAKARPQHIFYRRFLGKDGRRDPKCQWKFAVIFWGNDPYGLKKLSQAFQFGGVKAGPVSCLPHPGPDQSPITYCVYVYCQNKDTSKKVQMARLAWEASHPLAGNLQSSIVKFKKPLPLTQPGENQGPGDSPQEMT
T cruzi inh: T. cruzi replication inhibition | inhibition, % (no concentration beside the values) | T. cruzi beta-gal in NIH3T3, luminescence, 90 h | AID 1885 | 1.4% of 300,000 active;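 active = mean inhibition across valid replicates above about 55%, limit read from the data; inconclusive = mean below that limit but half or more replicates reach it; inactive = mean below it, under half of replicates reach it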;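 note: signal also drops with host cell toxicity which is not excluded here; 0% = plate median of DMSO wells and 100% = zero luminescence signal; higher percent means less beta-gal luminescence so fewer parasites; stock transfer was 50 nL into about 50 µL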
Beta cell apopt: beta cell apoptosis inhibition | INS-1E cytokine-induced death, ATP luminescence, 48 h; percent of positive-control rescue, neutral wells zero | protection from apoptosis, % (no concentration beside the values) | 0.8% of 300,000 active | AID 435005;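 active = all replicates at 75% or more, or half of them and the mean; inconclusive = half reach 75% but not the mean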;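 note: 0% = cytokine-treated negative control wells and 100% = positive control rescue; higher means more ATP so stronger rescue from cytokine killing; wells of about 40 µL received 100 nL stock; the first replicate is given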
MLL AF4-AF9 inh: inhibitors of human MLL-AF4/AF9 interaction. inhibition, % at 10 µM. 0.47% of 350,000 active. P42568. AlphaScreen, biotin-AF4 peptide binding to FLAG-AF9;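 active = every replicate reaching a set inhibition limit, whatever the replicate mean, cut at about 25% in these data; inconclusive = mean inhibition reaches that limit but some replicates miss it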;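 note: 0% = plate neutral control median and 100% = total signal loss; the record names both 10 and 1 µM as test concentration; the first replicate is given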
Bfl-1 A1 inh: inhibitors of the anti-apoptotic protein A1, read as caspase activation; MEF A1-2A-BIM cells, Caspase-Glo 3/7 luminescence, 3 h; percent of clofoctol response, vehicle zero; caspase activation, % (concentration not given with the values); 0.066% of 330,000 active;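 active = over half of replicate activation scores above 10%, or exactly half above 10 with the replicate mean above 10; inconclusive = replicate mean below 10 yet half the replicates above 10; inactive = over half of replicates below 10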;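 note: wells of about 30 µL received 50 nL stock; many hits fall short of the cut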
Vif A3G: HIV-1 Vif–A3G interaction blockers – biochemical, TR-FRET, GST-Vif 1-94, biotin-A3G peptide, dose response retest, primary screen (AID 1117319) | 0.57% of 260,000 active | inhibition, %; hits with a dose series show IC50 in µM | TR-FRET GST-Vif / biotin-A3G peptide binding; higher % means a stronger effect; test concentration not given here; strong numbers were not always called active;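 active = above the screen mean plus three standard deviations and confirmed in dose response; inconclusive = results disagree or hit not tested in dose response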;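 note: Vif residues 1-94 fused to GST binding biotinylated APOBEC3G peptide 110-148; 0% = full assay without inhibitor and 100% = GST in place of GST-Vif; retest series ran down from 100 µM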
Calb FLC: C. albicans growth modulation with fluconazole; C. albicans CaCi-2 (fluconazole-resistant clinical isolate) + fluconazole, Alamar Blue growth, 48 h; growth inhibition, % (concentration not given with the values); 0.57% of 300,000 active; AID 1979;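 active = most replicates above 75%; inconclusive = exactly half above 75%; inactive = most below 75%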;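 note: all wells also contain fluconazole at 8 µg/ml as a sub-toxic cotreatment; 0% = median of DMSO wells and 100% = median of geldanamycin control wells; wells of about 8 µL received 7.5 nL stock; the first replicate is given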
RanGTP-Impb inh: disruptors of Ran-importin-beta complex formation – biochemical, FRET, CFP-Ran, YFP-importin-beta, homogeneous, primary screen; cell-free CFP-Ran/YFP-importin-beta FRET ratio; inhibition, % (concentration not given with the values); 1.1% of 300,000 active;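 active = most replicates above 15%; inconclusive = exactly half above 15%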;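 note: 0% = DMSO wells and 100% = Ran loaded with GDP instead of GTP; wells of about 40 µL received 100 nL stock; the first replicate is given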
* = called active by the depositor.

`COc1ccc(Nc2ncnc3ccc(Br)cc23)c(OC)c1` gave LANA-H2A inh 2.0, T cruzi inh -2, Beta cell apopt -2, MLL AF4-AF9 inh 4.7, Bfl-1 A1 inh 0.8, Vif A3G 6%, Calb FLC -5 and RanGTP-Impb inh -5.4.
NC(=O)CSc1nnc2ccc(-c3ccc(F)cc3)nn12 was read as LANA-H2A inh 0.7, T cruzi inh -12, Beta cell apopt -5, MLL AF4-AF9 inh 0.0, Bfl-1 A1 inh 0.4, Vif A3G 25%, Calb FLC 0 and RanGTP-Impb inh -1.1.
`CC1(C(=O)O)CCC(C(=O)Nc2cccc(F)c2)C1(C)C` (stereo not given) gave LANA-H2A inh -6.4, T cruzi inh -9, Beta cell apopt -6, MLL AF4-AF9 inh -2.0, Bfl-1 A1 inh -0.1, Vif A3G 2%, Calb FLC -2 and RanGTP-Impb inh -1.4.
For Cc1ccc(CNC(=O)Cc2ccc(NC3=NC4CS(=O)(=O)CC4S3)cc2)cc1 (stereo not given) the results were LANA-H2A inh 1.3, T cruzi inh -2, Beta cell apopt 1, MLL AF4-AF9 inh -7.0, Bfl-1 A1 inh 0.2, Calb FLC 0 and RanGTP-Impb inh 5.0.
`COc1ccc(N2CCN(C(=O)c3ccc(N(C)S(=O)(=O)c4ccc(OC)cc4)cc3)CC2)cc1` gave LANA-H2A inh -8.1, T cruzi inh -4, Beta cell apopt 3, MLL AF4-AF9 inh 12, Bfl-1 A1 inh -0.9, Vif A3G -4%, Calb FLC 38 and RanGTP-Impb inh 6.0.
Screening Cc1nc(CSc2nnc(N)s2)cs1 returned LANA-H2A inh 2.2, T cruzi inh -12, Beta cell apopt -3, MLL AF4-AF9 inh -0.9, Bfl-1 A1 inh 0.4, Vif A3G 10%, Calb FLC -13 and RanGTP-Impb inh -2.3.
Screening CCn1nnc2cc(C(=O)Nc3ccc(C(=O)OC(C)C)cc3)ccc21 returned LANA-H2A inh 7.0, Beta cell apopt 2, MLL AF4-AF9 inh 6.8, Bfl-1 A1 inh -1.8 and Vif A3G -7%.
Cc1cc(C)nc(NC2=NCCN2C(=O)NC2CCCCC2)n1 was read as LANA-H2A inh -5.2, T cruzi inh -5, Beta cell apopt 0, Bfl-1 A1 inh 1.3, Vif A3G 5%, Calb FLC -4 and RanGTP-Impb inh 1.9.
Screening CCOC(=O)CNC(=S)N(CCCN1CCCCC1)Cc1cccs1 returned LANA-H2A inh 2.4, T cruzi inh -10, Beta cell apopt -8, MLL AF4-AF9 inh 1.4, Bfl-1 A1 inh -0.6, Calb FLC -11 and RanGTP-Impb inh 7.9.
Screening O=S(=O)(NCC(O)c1ccccc1)c1ccc(-c2ccccn2)s1 (stereo not given) returned LANA-H2A inh 2.7, T cruzi inh -7, Beta cell apopt 3, Bfl-1 A1 inh 0.9, Vif A3G 9%, Calb FLC -1 and RanGTP-Impb inh 7.8.
Screening CC(NC(=O)CCSCCC(=O)NC(C)c1ccccc1)c1ccccc1 (stereo not given) returned LANA-H2A inh -4.0, T cruzi inh 1, Beta cell apopt 3, Bfl-1 A1 inh -0.6, Calb FLC -1 and RanGTP-Impb inh 2.8.
For O=C(Nc1ccccc1F)c1ccc2snnc2c1 the results were LANA-H2A inh -0.1, T cruzi inh 1, Beta cell apopt 6, MLL AF4-AF9 inh -15, Bfl-1 A1 inh -8.3, Calb FLC 0 and RanGTP-Impb inh -2.4.
O=C(Nc1cc(S(=O)(=O)N2CCCCC2)ccc1Cl)C1=NN(c2ccccc2)C(=O)CC1 was read as LANA-H2A inh 0.1, T cruzi inh 8, Beta cell apopt 8, MLL AF4-AF9 inh 0.5, Bfl-1 A1 inh -1.1, Calb FLC 0 and RanGTP-Impb inh 2.5.
Screening Cn1c(SCC(=O)Nc2ccc(N3CCOCC3)cc2)nnc1-c1ccco1 returned LANA-H2A inh -4.0, T cruzi inh 8, Beta cell apopt 9, MLL AF4-AF9 inh -0.8, Bfl-1 A1 inh 0.7, Calb FLC 5 and RanGTP-Impb inh 5.0.
For O=C(c1ccc(F)cc1)C(C(=O)N1CCCCC1)n1ccccc1=O (stereo not given) the results were LANA-H2A inh 11, T cruzi inh -3, Beta cell apopt -2, MLL AF4-AF9 inh -0.9, Bfl-1 A1 inh 2.1, Vif A3G 4%, Calb FLC 14 and RanGTP-Impb inh -0.9.
For COc1ccc(NC(=O)CSc2nnc(Cn3c(=O)sc4ccccc43)n2C)cc1OC the results were LANA-H2A inh 4.3, Beta cell apopt 1, MLL AF4-AF9 inh -3.4, Bfl-1 A1 inh -0.1 and Vif A3G 24%.
Screening CCOc1ccc(NC(=O)CC2C(=O)N(c3ccc(OCC)cc3)C(=S)N2C2CC2)cc1 (stereo not given) returned LANA-H2A inh -0.1, T cruzi inh 4, Beta cell apopt -5, MLL AF4-AF9 inh -1.4, Bfl-1 A1 inh 1.0, Calb FLC -2 and RanGTP-Impb inh 2.7.
`O=C(Cn1cnc(Cl)c1Cl)c1ccc(F)cc1` gave LANA-H2A inh -2.3, T cruzi inh 0, Beta cell apopt -8, MLL AF4-AF9 inh 0.1, Bfl-1 A1 inh 0.0, Vif A3G -5%, Calb FLC -18 and RanGTP-Impb inh -0.6.
O=C(Nc1ccccc1)c1sc(Cl)nc1-c1ccccc1 was read as LANA-H2A inh 0.4, T cruzi inh -3, Beta cell apopt -3, Bfl-1 A1 inh 0.1, Vif A3G -9%, Calb FLC 44 and RanGTP-Impb inh 3.7.
For CC(C)c1nc(C(N)=O)c2[nH]c(=O)n(-c3ccc(F)cc3)c2n1 the results were LANA-H2A inh -5.1, T cruzi inh -4, Beta cell apopt -3, MLL AF4-AF9 inh -2.7, Bfl-1 A1 inh -1.0, Calb FLC 9 and RanGTP-Impb inh 3.2.
CN1CCN(NC(=O)Nc2ccc(F)cc2)CC1 was read as LANA-H2A inh -8.6, T cruzi inh 17, Beta cell apopt -9, MLL AF4-AF9 inh -0.1, Bfl-1 A1 inh 0.4, Calb FLC inconclusive and RanGTP-Impb inh 5.8.
For Cc1cc(NC(=O)C23CCC(C)(C(=O)O2)C3(C)C)no1 (stereo not given) the results were LANA-H2A inh -0.3, T cruzi inh 1, Beta cell apopt -5, Bfl-1 A1 inh 0.4, Vif A3G 6%, Calb FLC -14 and RanGTP-Impb inh -2.6.
Screening COc1ccccc1N1CCN(C(=O)C(=O)c2cn(CC(=O)N3CCCCCC3)c3ccccc23)CC1 returned LANA-H2A inh -13, T cruzi inh 40, Beta cell apopt 6, MLL AF4-AF9 inh 1.4, Bfl-1 A1 inh -0.2, Calb FLC -1 and RanGTP-Impb inh 0.3.
For COc1ccc2c(c1OC)C(=O)N1C2SC(C)(C)[C@H]1C(=O)NC1CCCC1 (stereo not given in full) the results were LANA-H2A inh 3.3, T cruzi inh -6, Beta cell apopt 2, MLL AF4-AF9 inh 0.3, Bfl-1 A1 inh 0.1, Calb FLC -8 and RanGTP-Impb inh -0.9.
For COc1ccc(/C(O)=C2/C(=O)C(=O)N(Cc3cccnc3)C2c2ccccn2)cc1 (stereo not given) the results were LANA-H2A inh -0.5, T cruzi inh 1, Beta cell apopt -5, Bfl-1 A1 inh 0.5, Vif A3G inconclusive, Calb FLC 2 and RanGTP-Impb inh 6.5.
For Cc1cc([N+](=O)[O-])ccc1-c1ccc(/C=N/NC(=O)Cc2ccccc2)o1 the results were LANA-H2A inh -7.5, T cruzi inh 5, Beta cell apopt 2, MLL AF4-AF9 inh 1.9, Bfl-1 A1 inh 0.4, Calb FLC -1 and RanGTP-Impb inh -39.
Cc1ccc(C(=O)OCC(=O)c2ccc(S(=O)(=O)N3CCCCC3)cc2)o1 was read as LANA-H2A inh -1.3, T cruzi inh -7, Beta cell apopt -6, MLL AF4-AF9 inh -0.8, Bfl-1 A1 inh 0.6, Vif A3G 7% and RanGTP-Impb inh inconclusive.
For S=C(Nc1ccccc1Cl)N(Cc1cccnc1)Cc1ccco1 the results were LANA-H2A inh -1.6, T cruzi inh 38, Beta cell apopt -4, MLL AF4-AF9 inh -8.3, Bfl-1 A1 inh 0.1, Vif A3G 15%, Calb FLC -7 and RanGTP-Impb inh -2.9.
Screening CCCS(=O)(=O)N1CCCC(C(=O)NCCCN(CC)c2cccc(C)c2)C1 (stereo not given) returned LANA-H2A inh 0.0, T cruzi inh 16, Beta cell apopt -2, Bfl-1 A1 inh 0.6, Vif A3G 4%, Calb FLC 8 and RanGTP-Impb inh 1.4.
Screening CCN1CC(CN(C)Cc2nc(-c3ccc(OC)c4ccccc34)oc2C)CC1=O (stereo not given) returned LANA-H2A inh 1.7, T cruzi inh 50, Beta cell apopt 0, MLL AF4-AF9 inh 4.7, Bfl-1 A1 inh 0.7, Calb FLC 20 and RanGTP-Impb inh 3.3.
`C=CCn1c(-c2ccccc2)n[nH]c1=S` gave LANA-H2A inh -0.3, T cruzi inh 4, Beta cell apopt -3, Bfl-1 A1 inh 0.3, Vif A3G 32%, Calb FLC 3 and RanGTP-Impb inh 4.7.
Screening CCn1c(C)nnc1SCC(=O)Nc1cccc(C(F)(F)F)c1 returned LANA-H2A inh 6.3, T cruzi inh -13, Beta cell apopt -5, MLL AF4-AF9 inh 0.0, Bfl-1 A1 inh 1.2, Vif A3G -3%, Calb FLC -8 and RanGTP-Impb inh 6.3.
Screening O=Cc1cn(CCC(=O)O)nc1-c1cccc(Cl)c1 returned LANA-H2A inh 3.2, T cruzi inh 14, Beta cell apopt -5, MLL AF4-AF9 inh -0.8, Bfl-1 A1 inh -0.7, Calb FLC -16 and RanGTP-Impb inh 2.3.
COc1ccc(C2C(C(=O)OCC(=O)NC(C)(C)C)CCC(=O)N2c2ccc(C)cc2)cc1OC (stereo not given) was read as LANA-H2A inh 1.9, T cruzi inh -5, Beta cell apopt 0, Bfl-1 A1 inh -0.4, Vif A3G 7%, Calb FLC -7 and RanGTP-Impb inh 5.6.
Screening COc1ccc(NC(=O)COC(=O)c2ccc3ccccc3n2)c(OC)c1 returned LANA-H2A inh 2.0, Beta cell apopt 0, MLL AF4-AF9 inh -2.3 and Bfl-1 A1 inh -0.3.
`O=C(COC(=O)c1c2c(nc3ccccc13)CCCC2)c1cccs1` gave LANA-H2A inh 9.0, T cruzi inh 2, Beta cell apopt 0, Bfl-1 A1 inh 1.0, Vif A3G -2%, Calb FLC 0 and RanGTP-Impb inh inconclusive.
O=C1c2ccc3c4c(ccc(c24)C(=O)N1CCCCO)C(=O)N(CCCCO)C3=O was read as T cruzi inh 68*, MLL AF4-AF9 inh 1.6, Vif A3G 12%, Calb FLC 67 and RanGTP-Impb inh -1.8.
`CC(C)(C)C1CCC(=NOC(=O)c2ccc(F)cc2)CC1` (stereo not given) gave LANA-H2A inh 6.0, T cruzi inh -5, Beta cell apopt -6, MLL AF4-AF9 inh 1.3, Bfl-1 A1 inh -0.4, Vif A3G 1%, Calb FLC 15 and RanGTP-Impb inh 1.5.
`Fc1ccc(-c2nc3c(Cl)cc(C(F)(F)F)cn3c2Cl)cc1` gave LANA-H2A inh 2.7, T cruzi inh -1, Beta cell apopt 1, Bfl-1 A1 inh -1.8, Vif A3G -13%, Calb FLC -29 and RanGTP-Impb inh -4.4.

Assay outcomes deposited in PubChem by several laboratories.
